VDR inh: Inhibitors of the vitamin D receptor (VDR): qHTS | Vitamin D3 receptor (Homo sapiens), P11473 | VDR-SRC2-3 peptide fluorescence polarization, 2 h | Potency, µM, for the others: max response, negative = inhibition, most hits filed as inhibitors | 400,000 compounds, 0.93% hits; active = well fitted inhibition curve with a large enough effect; inconclusive = small, poorly fitted or top-dose-only effect, or another doubt; inactive = no such curve, though single readings can be large or run the other way; note: series mostly up to about 120 µM
Target sequence (P11473 whole entry, looked up): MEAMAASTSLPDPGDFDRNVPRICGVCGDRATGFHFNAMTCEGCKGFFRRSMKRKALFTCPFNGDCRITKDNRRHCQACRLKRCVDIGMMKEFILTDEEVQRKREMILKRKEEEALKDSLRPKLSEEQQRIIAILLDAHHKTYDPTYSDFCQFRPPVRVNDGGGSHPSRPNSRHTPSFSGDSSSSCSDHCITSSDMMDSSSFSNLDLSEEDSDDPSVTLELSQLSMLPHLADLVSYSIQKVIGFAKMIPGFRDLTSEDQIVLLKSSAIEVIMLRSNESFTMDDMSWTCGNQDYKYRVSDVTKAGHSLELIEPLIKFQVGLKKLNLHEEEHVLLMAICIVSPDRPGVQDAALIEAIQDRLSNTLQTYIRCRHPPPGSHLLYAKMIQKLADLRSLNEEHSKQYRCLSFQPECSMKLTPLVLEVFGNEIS
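Fluorescence polarization assay of small-molecule disruption of VDR binding to coregulator peptide SRC2-3. Compounds and controls pin-transferred, then read after 2 h incubation at ambient room temperature.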
The depositor's hits bear a star; ? = inconclusive; & = joins results of further samples. % is set by controls: 0 for no effect and ±100 for the full control effect; potency is the fitted concentration of half-maximal effect. This is a subset; count on the stated rates, not on these rows.

SMILES	VDR inh
CCC(=O)/C=C1/Sc2ccc(OC)cc2N1CCO	?
C=C(C)CSc1cc(C)nc2c(-c3ccccc3)c(C)nn12	1%
COc1ccc(N=C2SC(CC(=O)Nc3ccc(OC)cc3OC)C(=O)N2C)cc1 (stereo unspecified)	2%
Nc1o[nH]c(=O)c1C1CCCCC1	3%
CCN1CCN(C(c2ccccc2)c2nnnn2Cc2ccc(OC)cc2)CC1 (stereo unspecified)	1%
COc1ccccc1Nc1ncc2c(n1)CCN(CC(C)C)C2	8%
NS(=O)(=O)c1ccc(CCNC(=O)CCn2c(=O)c3cccn3c3cccnc32)cc1	-5%
CCc1ccc(NC(=O)CCS(=O)(=O)c2ccc(Br)cc2)cc1	-2%
CCN1CCN(C(=S)c2ccc(O)cc2)CC1	79µM*
C=CCc1cccc2cc(C(=O)NCc3ccc(C(=O)OCC)o3)c(=O)oc12	-4%
COc1ccc(CCNC(=O)C(=O)NCC2CCCN2S(=O)(=O)c2cccs2)cc1OC (stereo unspecified)	-9%
CCCCNC(=O)CC1C(=O)N(Cc2ccccc2)C(C)c2nc3ccccc3n21 (stereo unspecified)	1%
COc1ccccc1P(=O)(c1ccccc1)c1ccc([N+](=O)[O-])cc1 (stereo unspecified)	-2%
CCOC(=O)CSc1nnc(Cc2ccccc2)n1-c1ccc(C)cc1	6%
COc1ccc(NC(=O)Cn2cnc3sc(C)c(S(=O)(=O)N4CCOCC4)c3c2=O)c(OC)c1	20%
CC(C)NC(=O)CSc1nc2ccccc2nc1N1CCCCC1	-7%
CC1CCCCN1C(=O)CSc1nnc(-c2ccccc2Cl)o1 (stereo unspecified)	-18%
Cn1nc(-c2ccc(N3CCCCC3)c(NC(=O)c3ccco3)c2)c2ccccc2c1=O	-16%
CC(=O)N1CCOc2ccc(S(=O)(=O)NCCc3ccc(Cl)cc3)cc21	-15%
O=C(COC(=O)c1ccc(N2CCCC2=O)cc1)c1ccc(OC(F)F)cc1	-3%
O=C(NCC1CCCN1S(=O)(=O)c1cccs1)c1cccc(F)c1 (stereo unspecified)	16%
CCCCc1nc(SCC(=O)Nc2nnc(CCCC)s2)n[nH]1	-6%
Cc1cccc(NC(=O)CCc2ccc(C)o2)c1	7%
CC(=O)Nc1ccc(NC(=O)C2(C)CC2(Cl)Cl)cc1 (stereo unspecified)	79µM*
O=C(O)c1cc(NC(=O)c2ccccc2F)cc(NC(=O)c2ccccc2F)c1	15%
The list goes on:
SMILES	VDR inh
Cc1noc(C)c1COc1ccc(C(=O)N2CCN(S(=O)(=O)c3ccc(F)cc3)CC2)cc1	-10%
CC(C)[C@H](NC(=O)c1cccc(S(=O)(=O)N2CCCC2)c1)c1nc2ccccc2[nH]1	-2%
CC1CCN(C(=O)c2[nH]cnc2C(=O)N[C@@H](C)C(=O)OCc2ccccc2)CC1	-21%
O=C(C1CCCN(S(=O)(=O)c2ccccc2)C1)N1CCN(c2ccc(F)cc2)CC1 (stereo unspecified)	5%
COC(=O)c1cc(OC)c(OC)cc1NC(=O)CN1CCOCC1	7%
CCN(CC)S(=O)(=O)c1ccc2c(c1)nc(SCC(=O)N1CCCCCC1)n2-c1ccc(OC)cc1	-13%
COc1cc(/C=C2\COC/C(=C\c3ccc(O)c(OC)c3)C2=O)ccc1O	?
Cn1c(=O)c2c(nc(NCc3ccccc3)n2CC(N)=O)n(C)c1=O	-27%
CN(Cc1ccccc1Cl)C(=O)C1CC(=O)N(c2ccc3c(c2)OCCO3)C1 (stereo unspecified)	-1%
COc1ccccc1/C=C1\CCCC2=C1Nc1nnnn1C2c1ccccc1OC (stereo unspecified)	?
CC1S/C(=N/N=C/c2ccco2)N(Cc2ccccc2)C1=O (stereo unspecified)	-4%
Cc1cc(NC(=O)c2cccc(S(=O)(=O)N(C)C)c2)n(-c2ccccn2)n1	1%
COc1cc(OC)cc(C(=O)N2CCC3(CC2)NCCc2[nH]cnc23)c1	-9%
Cc1ccc(-c2nc(CS(=O)(=O)CC(=O)NCCN3CCOCC3)c(C)o2)cc1	1%
Nc1ccc(Oc2ccc(Cl)cc2)cc1	0%
CCCCN1C(=O)C(NC(=O)c2ccc(C(C)(C)C)cc2)(C(F)(F)F)C(C(=O)OC)=C1C (stereo unspecified)	0%
CCC(C)NC(=O)Cc1c(C)c2cc3c(cc2oc1=O)OC(C)(C)CC3 (stereo unspecified)	-8%
NC(=O)/C=C\c1cn(-c2ccccc2)nc1-c1ccc2c(c1)OCCO2	6%
CSCCC(NS(=O)(=O)c1ccc2c(c1)oc(=O)n2C)C(=O)NC1CCC(C)CC1 (stereo unspecified)	-11%
COc1cc(C(=O)OCCC(C)C)cc(OC)c1O	-9%
Cn1c(-c2ccc(C=O)s2)nc2ccccc21	8%
O=C(NC1CCCCC1)NC1CCCCC1	-3%
O=C(CN1CCOc2ccccc21)N1CCCC1	?
COc1cc(Nc2nc(SCC(=O)c3ccc(Br)cc3)nc3ccccc23)cc(OC)c1	15%
O=C(COc1ccccc1Cl)Nc1nc(-c2ccc(F)cc2)ns1	1%

Retrieved by compound from the entries so far, two records:
SMILES	VDR inh
COc1cc(Nc2nc(SCC(=O)c3ccc(Br)cc3)nc3ccccc23)cc(OC)c1	15%
COc1cc(/C=C2\COC/C(=C\c3ccc(O)c(OC)c3)C2=O)ccc1O	?

(further entries)
SMILES	VDR inh
Clc1ccc(Cn2ncc3c(NCCN4CCOCC4)ncnc32)cc1	0%
COc1cc(OC)cc(C(=O)NCCNc2nc3cc(C)cc(C)c3cc2C#N)c1	-10%
O=[N+]([O-])c1ccccc1OCC(O)CNC1CCCC1 (stereo unspecified)	-11%
Cc1cc2cc(C(c3nnnn3CC3CCCO3)N3CCCc4ccccc43)c(=O)[nH]c2cc1C (stereo unspecified)	27%
C[C@@H](C(=O)N=c1sc2ccccc2n1C)N1C(=O)C2CC=CCC2C1=O (stereo partly specified)	-12%
CN(Cc1ccccc1)C(=O)C1CCC(CNS(=O)(=O)c2cccc3cccnc23)CC1 (stereo unspecified)	13%
COc1ccc(C(=O)Nc2cc(-c3nn4c(C)nnc4s3)ccc2C)cc1	-5%
CC(=O)Nc1cccc(NC(=O)C2CCCN2C(=O)Nc2ccccc2C)c1 (stereo unspecified)	1%
O=C(CCc1nc2ccccc2c(=O)[nH]1)Nc1nnc(SCc2ccc(F)cc2)s1	-13%
C=CCn1c(Cc2ccccc2)nnc1SCc1nc2ccccc2c(=O)[nH]1	0%
COC(=O)Nc1ccccc1C(=O)N1CCN(c2ccc(C)cc2)CC1	2%
COc1ccc(C2=NO[C@@H]3[C@@H]4C[C@@H]([C@H]5C(=O)N(C)C(=O)[C@@H]45)[C@H]23)c(OC)c1	0%
Cc1[nH]ccc2c1[nH]c1cc(=O)ccc12	7%&1%&1%
O=C(Nc1ccc2ccccc2n1)Nc1ccccc1F	-1%
O=C(NC(=S)N1CCOCC1)c1ccc(F)cc1	-13%
CCOC(=O)c1cc(-c2ccc(Cl)cc2)nc2c1c(=O)[nH]c(=O)n2CCOC	9%
O=C(NCCc1ccccc1)c1ccc2nc(-c3ccco3)c(-c3ccco3)nc2c1	?
Cc1ccsc1/C=N\Nc1cn[nH]c(=O)c1Cl	-2%
COC(=O)c1cn(CC(=O)Nc2ccc(F)cc2)c2ccccc12	-15%
CCCCc1cn([C@@H](CCCCN)C(=O)N2CCNCC2)nn1	-22%
CSc1nc2nc(-c3ccccc3)cc(=O)n2[nH]1	2%
CC(C)Cn1c(N)cc(=O)n(C)c1=O	9%
Cc1ccnc(NC(=O)CCS(=O)(=O)c2ccccc2)c1	0%
CN1N=C(C(=O)N2CCCC(Nc3ccc(F)c(F)c3)C2)CCC1=O (stereo unspecified)	0%
CCOc1ccccc1C(=O)NC1(C(F)(F)F)C(=O)Nc2c1c(=O)[nH]c(=O)n2-c1ccccc1 (stereo unspecified)	-19%
Later entries:
SMILES	VDR inh
CCOC(=O)c1cc(-c2ccccc2)n(CCC(=O)NCCc2ccc(C)cc2)c1C	18%
CC1CCCN(c2ccc(C(=O)NCCc3ccccc3)cn2)C1 (stereo unspecified)	-11%
Nn1c(-c2cccs2)nc2sc3c(c2c1=O)CCCC3	-11%
CCOC(=O)CC1C(=O)NCCN1S(=O)(=O)c1cc(Cl)c(Cl)cc1Cl (stereo unspecified)	5%
COc1cc(Cl)c(S(=O)(=O)NCc2cccnc2)cc1Cl	23%
O=C(C1=NNCC1c1ccccc1)C1OC1c1ccccc1 (stereo unspecified)	15%
Nn1c(SCC(=O)Nc2nccs2)nnc1-c1ccccn1	9%
O=C(CCC(=O)N1CC2CCCN2c2ccccc21)NCc1ccccc1Cl (stereo unspecified)	4%
CCOc1cccc(C2C(C(=O)c3ccc(C)o3)=C(O)C(=O)N2c2nccs2)c1 (stereo unspecified)	4%
O=C(Cc1ccc(-c2ccccc2)cc1)N1CCOCC1	2%
O=C(CCN1C(=O)/C(=C\C=C\c2ccccc2)SC1=S)Nc1cccc(C(=O)O)c1	-3%
C=CCOC(=O)Nc1ccc(Cl)cc1NC(=O)OCC=C	4%
O=C(COC(=O)Cn1cnc2ccccc21)NCc1ccc(F)cc1	-20%
COc1ccc(N2C(=O)CC(N(CCc3ccc(OC)c(OC)c3)C(=S)Nc3ccccc3)C2=O)cc1 (stereo unspecified)	21%
CN(C)c1ccc(N/C=C/C(=O)C(F)(F)F)cc1	25µM*
CCN(CC)C(=O)CSc1nc2cc3c(cc2c(=O)n1Cc1ccc2c(c1)OCO2)OCO3	-1%
CCOc1ccc(C(=O)N2CCC(c3noc(-c4ccc(S(=O)(=O)N5CCCC5)cc4)n3)CC2)cc1	6%
COc1cccc(CNC(=O)Cc2c(C)c3ccc(OC)c(C)c3oc2=O)c1	9%
O=C(NCCN1CCNC1=O)C1CCC(=O)N(Cc2ccccc2F)C1 (stereo unspecified)	17%
CCOC(=O)c1c(C)[nH]c(C(=O)OCC(=O)N(C)CC(=O)Nc2ccccc2Cl)c1C	8%
Cc1c(C2OC(=O)C3(CCCCC3)C(=O)C2(C)C)c(=O)n(-c2ccccc2)n1C (stereo unspecified)	-1%
CCOc1ccc(S(=O)(=O)NCc2cccs2)cc1	9%
CC(C)C[C@H]1CN=C(Nc2ccccc2)N1CCC(C)c1ccccc1 (stereo partly specified)	-20%
COc1ccccc1NS(=O)(=O)c1ccc(C(=O)NCC(c2ccccc2OC)N2CCCC2)cc1 (stereo unspecified)	0%
O=C(O)c1ccc(N/N=C/C2=C(N3CCOCC3)C(=C\c3ccccc3)/CC2)cc1	?
The listing continues.
SMILES	VDR inh
COc1ccc(S(=O)(=O)N2CCCCCC2)cc1NC(=O)Cc1ccccc1	1%
CC(=O)c1ccc(NC(=O)c2ccc([N+](=O)[O-])o2)cc1	7%
O=C(Nc1ccc2snnc2c1)Nc1cccc2ccccc12	-11%
Cc1ccc(CNC(=O)CNC(=O)c2c(C)nn(C)c2Cl)cc1	-5%
COc1cccc(NC(=O)N(CCC(C)C)C2CCN(C(C)C)CC2)c1	5%
COc1cc(C(=O)COC(=O)c2c(C)noc2C)cc(OC)c1OC	-2%
CNC(=S)Nc1cc(C(=O)N2CCCC2)ccc1N1CCCC1	-15%
O=C(Nc1nc2c(s1)CCCC2)c1cc2n(n1)C(C(F)(F)F)CC(C1CC1)N2 (stereo unspecified)	4%
CCOc1ccc(-n2c(SCC(=O)N3CCCc4ccccc43)nc3c([nH]c4ccccc43)c2=O)cc1	0%
Cn1c2c(c(=O)n(C)c1=O)CN(CCN1CCNCC1)CN2	15%
Cc1cc(=O)c(C(=O)Nc2cccc(N3CCCC3=O)c2)nn1-c1ccccc1F	-17%
C1COCCNCCOCCOCCOCCN1	?
CC(C)C(NC(=O)c1ccc(F)cc1)C(=O)N1CCN(C(=O)c2ccco2)CC1 (stereo unspecified)	-23%
Cc1ccc(C)c(SCC(=O)NNC(=O)c2ccccc2)c1	-8%
COc1cccc(NC(=O)CN(C)C(=O)CC(C)c2ccccc2)c1 (stereo unspecified)	1%
O=C(COc1ccc(F)cc1)NCCNC(=O)COc1ccc(F)cc1	7%
O=C(OCCN(CCOC(=O)c1ccncc1)S(=O)(=O)c1cccs1)c1ccncc1	-2%
Cc1cccc(OCCCC(=O)Nc2nc3ccccc3[nH]2)c1	-5%
Cc1nn(-c2ccc(Cl)cc2Cl)c(=O)c2ccccc12	5%
COc1ccc(Nc2nc(-c3c(C)nc4ncccn34)cs2)cc1	-8%
O=C(c1cn(-c2ccccc2)nc1-c1ccc(F)cc1)N1CCOCC1	3%
CCOC(=O)C(NC(=O)Nc1ccc(C(N)=O)cc1)(c1ccccc1)C(F)(F)F (stereo unspecified)	-14%
CN(CCc1cnn(C)c1)C(=O)CCc1nnc(CCCc2ccccc2)o1	4%

Molecules above that contain a nitro group on carbon, in the order listed:
SMILES	VDR inh
COc1ccccc1P(=O)(c1ccccc1)c1ccc([N+](=O)[O-])cc1 (stereo unspecified)	-2%
O=[N+]([O-])c1ccccc1OCC(O)CNC1CCCC1 (stereo unspecified)	-11%
CC(=O)c1ccc(NC(=O)c2ccc([N+](=O)[O-])o2)cc1	7%

Arranged by length of the SMILES (descending): part of the list above.
SMILES	VDR inh
CCOc1cccc(C2C(C(=O)c3ccc(C)o3)=C(O)C(=O)N2c2nccs2)c1 (stereo unspecified)	4%
C=CCc1cccc2cc(C(=O)NCc3ccc(C(=O)OCC)o3)c(=O)oc12	-4%
O=C(NCC1CCCN1S(=O)(=O)c1cccs1)c1cccc(F)c1 (stereo unspecified)	16%
Cc1ccc(C)c(SCC(=O)NNC(=O)c2ccccc2)c1	-8%
Cn1c(-c2ccc(C=O)s2)nc2ccccc21	8%
